Screening results (PubChem BioAssay)
Insulin prom inh: TRM-6 insulin promoter activity inhibition; TRM-6 cells (human fetal islet line), insulin promoter-eGFP reporter, imaging; reporter expression induced with tamoxifen; inhibition, % at 2 µM; hit rate 0.9% among 130,000; AID 1273;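 active = inhibition above the mean plus 3 SD, with well images judged a real hit on visual review, cut at about 60% in these data, passing the limit was not always enough; inconclusive = inhibition over the cutoff but images rejected on review; inactive = inhibition not above the cutoff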
RGS16-Gao HTS: regulators of human RGS16-Galphao interaction; binding response (% of control), % at 10 µM; hit rate 0.38% among 220,000; bead-based flow cytometry RGS16-Galphao binding, fluorescence; actives lie on both sides; AID 1441; O15492+P09471;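 active = below 25% or above 175%, edge rows of some plates excepted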;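 also: Galphao activated by GDP with aluminum fluoride before binding; 100% = wells without compound and 0% = beads without RGS; some results beyond the cut were filed as inactive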
Target sequence (O15492 whole entry, looked up): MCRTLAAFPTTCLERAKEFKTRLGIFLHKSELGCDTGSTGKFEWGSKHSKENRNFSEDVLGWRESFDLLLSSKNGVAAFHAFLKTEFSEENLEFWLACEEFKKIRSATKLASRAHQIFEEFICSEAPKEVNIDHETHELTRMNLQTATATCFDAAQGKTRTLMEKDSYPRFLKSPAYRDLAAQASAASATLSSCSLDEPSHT
Target sequence (P09471 whole entry, looked up): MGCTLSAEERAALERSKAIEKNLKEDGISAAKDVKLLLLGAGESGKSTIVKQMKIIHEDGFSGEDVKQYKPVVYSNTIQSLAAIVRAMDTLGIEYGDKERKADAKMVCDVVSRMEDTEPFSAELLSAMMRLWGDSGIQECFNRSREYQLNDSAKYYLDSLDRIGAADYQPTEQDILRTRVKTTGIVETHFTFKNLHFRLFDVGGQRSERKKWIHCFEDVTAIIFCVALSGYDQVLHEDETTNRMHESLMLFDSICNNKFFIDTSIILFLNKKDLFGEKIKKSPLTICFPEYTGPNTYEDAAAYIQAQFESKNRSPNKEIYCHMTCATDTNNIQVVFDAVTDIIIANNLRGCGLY
HSV replic up: HSV replication enhancement. hit rate 0.005% among 220,000. maximum fold increase. HSV replication augmentation in cells, fold increase. AID 1956;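 active = peak rise of 1.5-fold or more in the series; inconclusive = self-fluorescent or not available for retest; tested in PC3 cells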;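 also: first round at 10 µM; read as green reporter fluorescence; hits show the peak of a series up to 25 µM; 1 = signal of infected wells without compound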
PKD1 inh: blocks activity of human protein kinase D1. inhibition, %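 (about 10 µM by stock and volumes)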. hit rate 0.056% among 200,000. PKD1 kinase fluorescence polarization assay. AID 797;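 active = inhibition of 50% or more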;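 also: controls were vehicle for no effect and a reference inhibitor for full effect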
GALR2 agonist: agonists of human galanin receptor 2 (GALR2). O43603. activation, %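 (tested at 5 µM)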. GALR2-expressing cells, agonist activation read-out. hit rate 0.48% among 140,000. AID 803;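 active = above mean plus 3 SD of all compounds, about 5% in these data, not always enough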;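 also: 0% = vehicle buffer wells and 100% = reference agonist at full effect; tested in CHO reporter cells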
Target sequence (O43603 whole entry, looked up): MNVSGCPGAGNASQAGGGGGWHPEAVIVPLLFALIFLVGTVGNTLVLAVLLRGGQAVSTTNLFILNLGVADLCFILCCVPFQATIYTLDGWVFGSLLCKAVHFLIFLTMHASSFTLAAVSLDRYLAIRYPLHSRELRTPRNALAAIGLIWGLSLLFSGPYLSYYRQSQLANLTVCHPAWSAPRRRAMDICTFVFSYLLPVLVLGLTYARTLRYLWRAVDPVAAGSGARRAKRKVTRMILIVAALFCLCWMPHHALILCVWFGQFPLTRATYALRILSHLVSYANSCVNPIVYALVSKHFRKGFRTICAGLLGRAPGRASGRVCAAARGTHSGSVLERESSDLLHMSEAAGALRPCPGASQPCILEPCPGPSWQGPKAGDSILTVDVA
Insulin prom inh cell count: recorded beside Insulin prom inh, whose call it bears; normalized cell count, %; measured here: cell count, toxicity; reference of the scale not given here;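 cells exposed to compound for 48 h; stained nuclei by imaging scaled within each plate; lower means fewer cells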
HSV replic up primary fold: further read-out of HSV replic up, marked with its call; fold increase; compound at 10 µM; measured here: primary screen fold increase 10 uM; tested in PC3 cells;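 GFP signal in the first replicate; 1 = infected wells without compound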
Active calls of the source: *; i = inactive; ? = inconclusive; . = not tested or not shown.

SMILES	Insulin prom inh	Insulin prom inh cell count	RGS16-Gao HTS	HSV replic up	HSV replic up primary fold	PKD1 inh	GALR2 agonist
CCn1c(C(C)C)n[nH]c1=S	14	110	101	i	1.1	0	.
O=C(Cn1cc2c(n1)CCCCC2)N1CCc2ccccc21	.	.	85	i	0.87	-7	-2.3
O=S1(=O)CC(O)C(NCCO)C1 (centres undefined)	-20	110	98	i	0.9	-6	.
COC(=O)C1=C(C)N=C2SC(C)C(=O)N2C1/C=C/c1ccccc1OC (centres undefined)	.	.	103	i	0.88	-5	-2.1
COC(=O)c1ccc(NC(=O)Nc2ccccc2C)cc1	10	91	102	i	1.1	-1	.
CSc1cccc(NC(=O)CN(Cc2ccc(Cl)cc2)S(C)(=O)=O)c1	-39	91	118	i	0.94	-4	-3.0
Cc1ccc(-n2c3nc(=O)[nH]c(=O)c-3cc3cc([N+](=O)[O-])ccc32)cc1C	23	152	96	i	0.75	6	-0.9
O=C1c2ccccc2C(=O)c2c1ccc1c(=O)n(C3CCCCC3)[nH]c21	-212	60	118	i	0.87	-7	-0.5
COc1ccccc1CNC(=O)c1ccccc1OCc1ccc(F)cc1	-38	78	96	i	1	-9	0.1
O=[N+]([O-])c1cc(/C=N/n2cnnc2)ccc1N1CCCC1	-100	110	100	i	0.93	-7	.
Cc1cc(-c2cc(C(=O)NCc3ccccc3)on2)nc(NCC2CC2)n1	.	.	98	i	0.6	.	.
CCN(CC)CCOC(=O)c1ccc(NC(=O)c2ccc(Cl)c(S(=O)(=O)N3CCCCCC3)c2)cc1	36	159	101	.	.	-1	.
Clc1cccc(/C(Cc2nc3ccccc3[nH]2)=N\Nc2ccccc2)c1	.	.	105	i	1.3	5	-1.5
Cc1no[n+]([O-])c1COc1ccccc1/C=C1\NC(=S)NC1=O	-39	82	74	i	0.71	-4	-1.3
COc1ccccc1NC(=O)Cc1nc(CCl)cs1	36	88	104	i	0.97	0	-0.8
COC(=O)C(C(=O)Nc1cccc(Cl)c1C)C1CCCC1 (centres undefined)	-93	116	99	i	0.97	-3	.
CCOC(=O)N1CCN(C(=O)CSc2ccc(-c3ccccc3OC)nn2)CC1	20	98	102	i	0.79	-2	.
CCOC(=O)C(NCCc1ccccc1F)(NC(=O)CC)C(F)(F)F (centres undefined)	-11	138	99	i	0.94	-8	-0.9
Cc1ccc(C2=NC3(CCCC3)NC2=S)cc1	-33	111	104	i	1.1	-1	.
CCn1c(SCc2nc(-c3ccccc3)no2)nc2ccccc21	.	.	102	i	0.93	-7	-2.0
Cc1cccc(N2CCN(S(=O)(=O)c3cnc[nH]3)CC2)c1C	.	.	74	i	0.93	0	-0.8
COc1ccc(C(=O)NC(=O)Nc2cc(C)ccn2)cc1	-64	170	101	i	0.79	-3	-1.0
O=C(c1cn(-c2ccccc2)nc1-c1cccnc1)N1CCCCC1	.	.	104	i	0.98	5	0.2
CNC(=O)c1ccc(-c2sc3nc(N4CCOCC4)c4c(c3c2N)CC(C)(C)OC4)o1	-26	140	84	i	1	2	-0.2

Quoted from above, 6 compounds:
SMILES	Insulin prom inh	Insulin prom inh cell count	RGS16-Gao HTS	HSV replic up	HSV replic up primary fold	PKD1 inh	GALR2 agonist
Clc1cccc(/C(Cc2nc3ccccc3[nH]2)=N\Nc2ccccc2)c1	.	.	105	i	1.3	5	-1.5
Cc1no[n+]([O-])c1COc1ccccc1/C=C1\NC(=S)NC1=O	-39	82	74	i	0.71	-4	-1.3
COc1ccccc1NC(=O)Cc1nc(CCl)cs1	36	88	104	i	0.97	0	-0.8
COC(=O)C(C(=O)Nc1cccc(Cl)c1C)C1CCCC1 (centres undefined)	-93	116	99	i	0.97	-3	.
CCOC(=O)N1CCN(C(=O)CSc2ccc(-c3ccccc3OC)nn2)CC1	20	98	102	i	0.79	-2	.
CCOC(=O)C(NCCc1ccccc1F)(NC(=O)CC)C(F)(F)F (centres undefined)	-11	138	99	i	0.94	-8	-0.9

(further entries)
SMILES	Insulin prom inh	Insulin prom inh cell count	RGS16-Gao HTS	HSV replic up	HSV replic up primary fold	PKD1 inh	GALR2 agonist
CC(COc1ccccc1)N1CCC(CO)(CCc2ccccc2)CC1 (centres undefined)	.	.	99	i	0.72	-7	.
O=c1c2[nH]c3ccc(F)cc3c2ncn1CCCN1CCOCC1	-22	115	101	i	0.95	-11	-1.8
COc1ccc(C)cc1N(CC(=O)N/N=C/c1ccccc1C(=O)O)S(=O)(=O)c1ccccc1	-14	186	104	.	.	-10	.
COc1ccc(CN2CCC(CO)(Cc3ccccc3)CC2)cc1Cn1cccn1	.	.	108	i	0.97	-5	.
Cc1ccc(C)c(NC(=O)CCn2nc(C)cc2C)c1	-48	115	96	i	0.96	0	-1.9
CN(CCN1CCOCC1)Cc1nc(-c2ccc3c(c2)OCO3)no1	.	.	100	i	1.1	1	.
COC(=O)c1ccc(C(=O)O)nc1	.	.	96	i	1.1	.	.
CCOC(=O)N1CCC(NC(=O)c2cc3c(C)nc4ccccc4c3o2)CC1	.	.	91	i	0.71	0	-1.1
Cc1ccc(C(=O)NCC(=O)NC2CCCC2)cc1	.	.	100	i	0.96	-7	.
COCCn1c(-c2cccs2)nc2nc3ccccc3nc21	.	.	101	i	0.97	.	.
O=C(Oc1cccc(NC2=NS(=O)(=O)c3ccccc32)c1)c1cccnc1	.	.	101	i	0.98	-2	.
O=c1[nH]c2ccc(F)cc2[nH]c1=O	.	.	102	i	0.91	-1	.
COc1cc(C(=O)N(CCCO)Cc2cc3ccc(C)c(C)c3[nH]c2=O)cc(OC)c1OC	.	.	109	i	0.98	-11	-2.6
CCOc1ccccc1NC(=O)C1Cc2ccccc2CN1S(C)(=O)=O (centres undefined)	-7	28	93	i	0.96	-6	-0.9
CC(=O)c1sc(N/N=C\c2ccc(Br)cc2)nc1C	-11	105	107	?	.	-8	1.6
COc1ccc(NC(=O)CC2C(=O)N(c3ccc(OC)cc3)C(=O)N2Cc2ccc(OC)c(OC)c2)cc1 (centres undefined)	.	.	102	i	0.97	0	.
CC(=O)c1ccc(N2CCN(C(=O)CN(C)S(=O)(=O)c3cnc[nH]3)CC2)cc1	.	.	97	i	1	-3	.
CN1C(C(=O)NCc2ccco2)CC2Cn3c(nc4cc5ccccc5cc43)C21 (centres undefined)	.	.	111	i	0.76	.	.
CCOC(=O)/C(C(=O)Nc1ccccc1Br)=C1/NC(C)(C)Cc2ccccc21	25	126	99	i	0.99	-7	-1.8
NS(=O)(=O)c1ccc(CNC(=O)c2cnccn2)cc1	.	.	100	i	0.93	.	.
Cc1cccc(-c2nnc(SCC(=O)NCc3ccc4c(c3)OCO4)n2C)c1	-35	68	104	i	0.92	-6	-1.5
CCCCc1nc2ccccc2c(NC(=O)CNC(C)(C)C)c1CCC	.	.	124	i	0.93	2	0.7
O=C(N/C(=C/c1cccs1)c1nc2ccccc2[nH]1)c1ccccc1	-86	117	104	i	0.82	-15	-3.2
C=CCn1c(C)c(C(C)=O)c(N2CCN(c3ccccc3)CC2)nc1=S	-21	34	112	?	.	3	-1.9
Cc1cccc(Nc2nnc(SC/C(O)=C(\C#N)c3nc4ccccc4[nH]3)s2)c1	7	135	97	i	1.1	-10	-0.8
O=C(CCNc1n[nH]c(=O)[nH]c1=O)N/N=C\c1cccc(OCc2ccccc2)c1	.	.	99	i	0.86	-4	.
COc1cccc(C(=O)NCCN2CCOCC2)c1	54	66	139	.	.	-6	-1.4
Cc1cc(Oc2cc(N)cc([N+](=O)[O-])c2)ccc1Cl	26	111	95	i	0.96	-9	0.8
CC(C)CC(=O)N=C1SC2CS(=O)(=O)CC2N1CCc1ccccc1 (centres undefined)	.	.	166	i	1	3	-0.3
COC(=O)C1C(c2ccc(Cl)cc2)NC(c2ccc(Cl)cc2)C(C(=O)OC)S1(=O)=O (centres undefined)	0	82	96	i	0.87	-4	-0.3
Fc1ccc(-c2csc(-c3ccccn3)n2)cc1F	-35	89	105	i	0.96	0	.
Cc1cc(C)cc(NC(=O)CN(Cc2ccccc2)S(C)(=O)=O)c1	-100	46	92	.	.	-6	-1.8
CCOC(=O)Cc1csc(NC(=O)NC2(C(F)(F)F)Oc3cc(Cl)c(Cl)cc3O2)n1	-7	75	97	i	0.9	10	-1.1
COCCSc1ncnc2c1oc1nc3c(cc12)COC(C)(C)C3	.	.	97	i	0.89	.	.
CC1=C(C(=O)N(C)C)C(c2ccc(N3CCOCC3)cc2)NC(=O)N1 (centres undefined)	21	150	99	i	1	6	.
O=C(COC(=O)/C=C/c1cccc(Cl)c1)NCCc1ccc(Cl)cc1Cl	.	.	119	i	0.97	-9	0.2
O=C(Nc1ccc(S(=O)(=O)Nc2nccs2)cc1)c1ccc(N2C(=O)c3ccccc3C2=O)cc1	.	.	97	i	0.98	-3	.
COc1ccc(C2C3=C(CCCC3=O)NC3=C2C(=O)c2ccccc23)cc1 (centres undefined)	.	.	106	i	0.91	.	.
Cc1ccccc1C(=O)N1CCC(C(=O)Nc2ccc(F)cc2)CC1	20	109	101	i	0.94	6	0.6
CCOc1cccc(OCCNC2CCCC2)c1	.	.	90	i	0.82	-5	.
Cc1ccc(C(=O)NCC(C)(C)O)cc1	7	133	95	i	1	-2	-1.5
COc1cccc(N2CC(O)=C(c3nc4ccccc4c(=O)[nH]3)C2=N)c1	-73	23	155	i	0.65	0	-0.2
O=C(CSc1nc2ncccc2[nH]1)c1cccc([N+](=O)[O-])c1	45	93	101	i	0.89	1	-0.8
O=C(CC1CCOCC1)Nc1ccc(Cl)c(Cl)c1	21	133	97	i	1	2	.
c1ccc(NC2=Nc3ccccc3CS2)cc1	15	76	98	i	1	-11	-1.0
COc1ccc(S(=O)(=O)c2ccc(OCC3CO3)cc2)cc1 (centres undefined)	.	.	116	i	0.77	0	.
Cc1c(O)c(=O)c2ccccc2n1C	-33	103	105	i	0.97	1	-0.4
O=C(NC(NNc1ccc([N+](=O)[O-])cc1)(C(F)(F)F)C(F)(F)F)c1ccccc1Cl	.	.	103	i	1.1	-11	-1.7
CCCCN(CC)C(=O)c1cccc(Cl)c1	-1	100	97	i	0.8	2	-0.6
O=S(=O)(CCc1nc2ccccc2[nH]1)c1ccc(Br)cc1	.	.	108	i	0.89	3	0.2
CCOc1cccc(NC(=O)C2CC(=O)N(c3ccc(F)cc3)C2)c1 (centres undefined)	.	.	104	i	0.93	-2	.
COc1ccc(-c2csc(/C(C#N)=C/Nc3ccc4c(c3)OCCO4)n2)cc1	-3	39	47	i	1.2	4	-0.3
Cc1ccc2nc(NC(=O)CSc3nc4c(c(=O)n3C)SC(C)C4)sc2c1 (centres undefined)	-55	142	105	i	0.84	8	-0.7
CCOC(=O)c1cc2c(ccn2C)n1CC(=O)N1CCCC(C)C1 (centres undefined)	-22	98	105	i	0.84	-4	-1.6
CCc1ccc(NC(=O)CCNS(=O)(=O)c2cccc3nonc23)cc1	.	.	121	i	1.1	-16	-0.4
CCOc1ccc(CN2CCN(Cc3c(C)nn(CC)c3C)CC2CCO)cc1 (centres undefined)	.	.	99	i	0.78	.	.
CCC(C(=O)OCC(=O)Nc1ccc(OC)cc1OC)c1ccccc1 (centres undefined)	.	.	100	i	1.1	-8	.
C/C(=N\NC(=O)c1ccccc1C)c1cccc([N+](=O)[O-])c1	14	89	99	i	1	9	-1.1
CCOC(=O)C1CCCN(C2CC(=O)N(c3ccc(N4C(=O)CC(N5CCCC(C(=O)OCC)C5)C4=O)cc3)C2=O)C1 (centres undefined)	29	99	100	i	1	-2	.
COc1ccc2c(C)cc(SCC(=O)Nc3cc(C(N)=O)cc(C(N)=O)c3)nc2c1	.	.	101	i	1	.	.
(listing goes on)
SMILES	Insulin prom inh	Insulin prom inh cell count	RGS16-Gao HTS	HSV replic up	HSV replic up primary fold	PKD1 inh	GALR2 agonist
Cc1cc(CNC(=O)c2cccnc2Cl)c2ccccc2n1	53	115	109	i	0.89	-1	.
CCn1c(NCc2cccs2)nc2ccccc21	-13	110	109	i	0.84	4	-1.8
CCn1c(/C=C/c2ccccc2)nc2ccccc2c1=O	.	.	106	i	0.94	-1	.
Cc1ccc(-c2nc(CN3CCN(c4cnccn4)CC3)c(C)o2)o1	-33	121	90	i	1	-2	.
O=C1Nc2ccccc2OC1CC(=O)N1CCOCC1 (centres undefined)	.	.	98	i	0.86	-1	-2.5
O=C(NC(=S)NCc1ccc(-c2nc3ccccc3s2)cc1)c1ccco1	.	.	90	i	1.2	1	0.0
CCN(CC)CCn1c(SCC(=O)NCc2ccccc2)nc2c(sc3ccccc32)c1=O	-100	71	98	i	1	-1	.
COc1cc(CC2COC(c3ccc(O)c(OC)c3)C2COC(C)=O)ccc1O (centres undefined)	.	.	96	i	0.86	.	.
CC(C)n1c(-c2ccncc2)n[nH]c1=S	.	.	92	i	0.97	-5	.

Hits appear at their usual frequency; 1.3% or so of the library scored in one or more.
